AF4-AF9 inh: blocks AF4 peptide binding to human AF9; P42568; AlphaScreen, biotin-AF4 peptide binding to FLAG-AF9; inhibition, % at 10 µM; 350,000 tested, 0.47% active; AID 651704;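 active = every replicate reaching a set inhibition limit, whatever the replicate mean, cut at about 25% in these data; inconclusive = mean inhibition reaches that limit but some replicates miss it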;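 also: 0% = plate neutral control median and 100% = total signal loss; the record names both 10 and 1 µM as test concentration; the first replicate is given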
LANA-H2B inh: blocks KSHV LANA binding to histone H2A/H2B | inhibition, % (test concentration not listed) | AID 2629 | 320,000 tested, 0.6% active | cell-free LANA-H2A/H2B peptide, fluorescence polarization | Q9QR71; in the data active = inhibition mostly above about 10%, no sharp cut-off; inactive = mostly below about 6.7%;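 also: stock transfer was 7.5 nL into about 10 µL; 0% = median of vehicle wells and 100% = median of positive control wells; one replicate is shown; the record names a cut of 25% in any replicate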
Target sequence (Q9QR71 whole entry, looked up): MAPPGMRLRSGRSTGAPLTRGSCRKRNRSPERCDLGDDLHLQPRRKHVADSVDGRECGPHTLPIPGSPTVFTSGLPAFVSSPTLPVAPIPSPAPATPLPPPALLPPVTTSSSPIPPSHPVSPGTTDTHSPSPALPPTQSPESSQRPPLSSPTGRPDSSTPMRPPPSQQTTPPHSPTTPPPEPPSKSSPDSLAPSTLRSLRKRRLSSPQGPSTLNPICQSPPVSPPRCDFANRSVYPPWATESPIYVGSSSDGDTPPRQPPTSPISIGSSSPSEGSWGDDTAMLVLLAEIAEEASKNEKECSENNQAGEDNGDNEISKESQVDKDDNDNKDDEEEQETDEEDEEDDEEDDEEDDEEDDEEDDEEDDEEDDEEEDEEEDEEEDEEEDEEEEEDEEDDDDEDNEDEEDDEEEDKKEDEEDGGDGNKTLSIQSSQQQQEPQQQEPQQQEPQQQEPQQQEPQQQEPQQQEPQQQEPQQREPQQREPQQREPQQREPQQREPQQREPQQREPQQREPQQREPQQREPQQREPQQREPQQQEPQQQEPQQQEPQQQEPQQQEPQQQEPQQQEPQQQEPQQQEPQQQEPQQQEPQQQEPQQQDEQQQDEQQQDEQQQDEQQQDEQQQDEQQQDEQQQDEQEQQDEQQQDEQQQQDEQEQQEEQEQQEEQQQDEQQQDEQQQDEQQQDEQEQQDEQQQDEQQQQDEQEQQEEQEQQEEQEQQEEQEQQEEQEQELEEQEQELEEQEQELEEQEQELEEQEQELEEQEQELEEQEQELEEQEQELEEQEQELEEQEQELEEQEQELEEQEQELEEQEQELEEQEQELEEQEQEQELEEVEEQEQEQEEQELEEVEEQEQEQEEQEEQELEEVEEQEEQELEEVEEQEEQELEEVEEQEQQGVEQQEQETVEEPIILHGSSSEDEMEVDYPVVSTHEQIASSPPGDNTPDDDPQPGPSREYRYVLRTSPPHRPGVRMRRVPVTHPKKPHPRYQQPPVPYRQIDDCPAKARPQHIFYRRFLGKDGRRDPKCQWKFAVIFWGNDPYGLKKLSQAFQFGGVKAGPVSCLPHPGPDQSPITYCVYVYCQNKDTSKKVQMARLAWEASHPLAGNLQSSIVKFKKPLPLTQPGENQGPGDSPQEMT
Bfl-1 A1 inh: inhibitors of the anti-apoptotic protein A1, read as caspase activation; MEF A1-2A-BIM cells, Caspase-Glo 3/7 luminescence, 3 h; percent of clofoctol response, vehicle zero; caspase activation, % (no concentration beside the values); 330,000 tested, 0.066% active;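 active = over half of replicate activation scores above 10%, or exactly half above 10 with the replicate mean above 10; inconclusive = replicate mean below 10 yet half the replicates above 10; inactive = over half of replicates below 10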;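 also: wells of about 30 µL received 50 nL stock; many hits fall short of the cut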
T cruzi repl: T. cruzi replication inhibition. AID 1885. 300,000 tested, 1.4% active. inhibition, % (concentration not given with the values). T. cruzi beta-gal in NIH3T3, luminescence, 90 h;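 active = mean inhibition across valid replicates above about 55%, limit read from the data; inconclusive = mean below that limit but half or more replicates reach it; inactive = mean below it, under half of replicates reach it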;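 also: signal also drops with host cell toxicity which is not excluded here; 0% = plate median of DMSO wells and 100% = zero luminescence signal; higher percent means less beta-gal luminescence so fewer parasites; stock transfer was 50 nL into about 50 µL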
Beta cell apopt: blocks beta cell apoptosis | 300,000 tested, 0.8% active | INS-1E cytokine-induced death, ATP luminescence, 48 h; percent of positive-control rescue, neutral wells zero | protection from apoptosis, % (no concentration beside the values) | AID 435005;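 active = all replicates at 75% or more, or half of them and the mean; inconclusive = half reach 75% but not the mean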;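 also: 0% = cytokine-treated negative control wells and 100% = positive control rescue; higher means more ATP so stronger rescue from cytokine killing; wells of about 40 µL received 100 nL stock; the first replicate is given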
RanGTP-Imp inh: inhibitors of RanGTP-importin-beta interaction, primary screen, biochemical, FRET, CFP-Ran, YFP-importin-beta, homogeneous. cell-free CFP-Ran/YFP-importin-beta FRET ratio. inhibition, % (concentration not given with the values). 300,000 tested, 1.1% active;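 active = most replicates above 15%; inconclusive = exactly half above 15%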;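 also: 0% = DMSO wells and 100% = Ran loaded with GDP instead of GTP; wells of about 40 µL received 100 nL stock; the first replicate is given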
Calb FLC: affects C. albicans growth with fluconazole; C. albicans CaCi-2 (fluconazole-resistant clinical isolate) + fluconazole, Alamar Blue growth, 48 h; growth inhibition, % (no concentration beside the values); 300,000 tested, 0.57% active; AID 1979;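 active = most replicates above 75%; inconclusive = exactly half above 75%; inactive = most below 75%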;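 also: all wells also contain fluconazole at 8 µg/ml as a sub-toxic cotreatment; 0% = median of DMSO wells and 100% = median of geldanamycin control wells; wells of about 8 µL received 7.5 nL stock; the first replicate is given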
Vif TR-FRET: HIV-1 Vif–A3G interaction blockers – biochemical, TR-FRET, GST-Vif 1-94, biotin-A3G peptide, dose response retest, primary screen (AID 1117319) | TR-FRET GST-Vif / biotin-A3G peptide binding; higher % means a stronger effect; test concentration not given here; strong numbers were not always called active | one-dose inhibition, %; IC50 in µM for titrated hits | 260,000 tested, 0.57% active;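 active = above the screen mean plus three standard deviations and confirmed in dose response; inconclusive = results disagree or hit not tested in dose response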;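 also: Vif residues 1-94 fused to GST binding biotinylated APOBEC3G peptide 110-148; 0% = full assay without inhibitor and 100% = GST in place of GST-Vif; retest series ran down from 100 µM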
Starred values were filed as active, the others as inactive; ? = inconclusive; nt = not tested or not shown; & = joins results of further samples.

SMILES	AF4-AF9 inh	LANA-H2B inh	Bfl-1 A1 inh	T cruzi repl	Beta cell apopt	RanGTP-Imp inh	Calb FLC	Vif TR-FRET
Cc1cccc(NC(=S)NCCCN2CCOCC2)c1	-0.8	-4.1	-0.1	9	1	-4.4	-2	0%
O=C(CSc1n[nH]c(-c2ccc(S(=O)(=O)N3CCCCC3)cc2)n1)Nc1nccs1	nt	-12	0.5	9	-1	-0.5	1	?
S=c1[nH]nc(COc2ccccc2)n1Cc1ccccc1	-24	-0.3	0.1	-9	-2	1.1	29	nt
CCCCOc1ccc(C(=O)NNC(=S)NC(=O)CC)cc1	nt	3.1	-0.1	4	79*	?	87*	4%
COc1cc(OC)c(C(=O)Nc2ccccc2-c2ccccc2)cc1OC	nt	-2.8	-1.3	51	3	1.9	3	14%
Cc1noc(C)c1COc1cccc(C(=O)OCC(=O)NC(=O)c2ccc(OC(F)F)cc2)c1	-1.9	1.2	0.4	-26	-4	-3.9	13	-8%
CSc1ccccc1NC(=O)c1cc(C(C)C)on1	nt	-5.6	-3.2	-7	-6	-1.9	-29	-5%
CC(C)N(CC#CC(O)(c1ccccc1)c1ccccc1)CCO	nt	-1.0	0.0	-16	-6	1.1	2	9%
CC(C)(C)c1ccc(C(=O)N/C(N)=N/c2nc3ccccc3o2)cc1	nt	1.3	0.7	-12	7	2.3	2	-2%
COc1ccc(C(=O)c2ccc(Cl)cc2)c2ccccc12	nt	-0.5	2.5	12	-1	0.1	4	-9%
Cc1nnc(N/N=C/c2ccccc2C(F)(F)F)n1N	-2.5	-7.0	1.3	2	-5	-3.9	-11	nt
CCn1c(=O)c(CCC(=O)NCCN2CCOCC2)c(C)c2c(C)nn(-c3ccccc3)c21	2.1	0.9	0.3	5	9	1.6	13	nt
CCOC(=O)C(C)Sc1nc(-c2ccccn2)ncc1OC (stereo not drawn)	-0.3	-2.6	-0.1	13	nt	1.5	1	nt
COc1ccc([C@H]2CC(=O)C=C(c3ccc(C)c(F)c3)C2)cc1	-0.7	4.6	-0.6	nt	-3	nt	nt	nt
CCCCCOC(=O)Cn1c(=O)oc2ccccc21	0.4	-5.3	-0.7	-12	4	4.9	0	3%
O=C1CNC(=O)N1CC(O)Cn1c2ccccc2c2ccccc21 (stereo not drawn)	0.0	3.0	-0.3	3	0	-3.6	-3	-5%
CCC(C)(C)n1c(=O)[nH]c2c(c1=O)CCC2	nt	5.2	0.4	1	9	?	-46	3%
CC(C)(C)C(=O)NNC(=O)COc1ccc2ccccc2c1Br	5.8	-1.2	0.4	-6	0	?	9	nt
CC(C)N(C(=O)C[n+]1ccc(/C=N/O)cc1)C(C)C	-0.8	1.6	-0.3	-11	-4	-3.4	?	nt
CC(Sc1ccccn1)C(=O)Nc1ccc(S(N)(=O)=O)cc1 (stereo not drawn)	nt	0.2	1.3	-3	2	9.6	1	14%
CN(CC(=O)Nc1ccccc1C(F)(F)F)C(=O)COc1ncnc2sccc12	0.1	0.5	-0.3	-15	4	0.4	-4	8%
CCc1ccc(NC(=O)NNC(=O)c2cc3ccccc3cc2O)cc1	-3.7	0.5	1.0	-12	-7	-4.1	?	nt
CCn1c(=O)c(C(=O)NNS(=O)(=O)c2ccc(Br)cc2)c(O)c2ccccc21	-4.7	-2.5	-0.9	-6	-1	-1.1	7	21%
O=C1C(=O)N(CCN2CCOCC2)C(c2ccccn2)/C1=C(/O)c1ccccc1 (stereo not drawn)	nt	-2.8	1.2	4	-12	24*	-4	14%
COc1ccc(CCOC(=O)CNC(=O)c2ccc(Cl)cc2Cl)cc1	-2.1	-1.4	0.3	-19	-1	5.1	13	nt
NS(=O)(=O)c1ccc(NC(=O)CSC2=NC(=O)C(c3ccccc3)C(=O)N2)cc1 (stereo not drawn)	nt	3.6	0.8	-16	4	-0.7	-2	1%
CC1Cc2nc(SCC(=O)N3CCOCC3)n(-c3ccccc3)c(=O)c2S1 (stereo not drawn)	-7.5	12	-0.4	15	0	-1.3	-2	2%
CCC(C)NC(=O)CN1C(=O)COc2ccc(S(=O)(=O)N3CCOCC3)cc21 (stereo not drawn)	-5.5	nt	nt	-5	nt	4.1	-8	-12%
CCCOC(=O)CC1C(=O)NCCN1C(=O)OC(C)(C)C (stereo not drawn)	-1.9	2.7	1.1	-2	-2	1.9	-3	nt
CCn1c(CCNC(=O)c2ccc(C)cc2)nnc1SCc1ccc(Cl)c(Cl)c1	nt	-5.2	-0.2	20	10	2.0	-9	nt
CCOC(=O)Cn1nnnc1CN(Cc1ccc(OC)cc1)Cc1cc2cc(CC)ccc2[nH]c1=O	3.2	-2.6	0.6	13	0	4.1	3	3%&0%
CC(=O)Oc1c(C(=O)c2nnc(C)o2)c(=O)n(C)c2ccccc12	nt	-0.1	1.8	-9	-10	1.4	-2	0%
Cc1ccc(N/C(N)=N/c2nc(CSc3nnc(C)s3)cc(=O)[nH]2)c(C)c1	3.4	4.7	0.7	-18	21	?	1	nt
CCCNC(=S)NC1CCCC1	nt	1.6	-0.4	5	-6	1.2	-4	70%
COc1cc(C(=O)NCc2cccnc2)ccc1OCC(=O)Nc1cccc(C(F)(F)F)c1	-1.3	-2.2	-0.9	-18	6	4.2	1	3%
CC(NS(=O)(=O)c1ccc(Br)cc1)c1ccccc1 (stereo not drawn)	1.0	-1.1	-0.1	-5	-4	-3.1	-1	nt
CCOc1cc(C(=O)Nc2ccc(C)cc2C)ccc1OCC(=O)N1CCCCC1	nt	2.9	-0.2	-5	0	-3.8	25	7%
Cc1cccc(N2C(=O)CC(Sc3nnc(C)s3)C2=O)c1 (stereo not drawn)	nt	3.6	0.4	-13	-9	7.7	-11	29%
COc1cc(OC)c(C(=O)NNC(=S)NC2CCCCC2)cc1OC	1.1	6.0	-0.6	-7	-2	-0.6	-12	-48%
Cc1nnc2n1N=C(c1ccc3c(c1)NC(=O)CO3)CS2	nt	0.7	-0.7	-19	2	2.1	4	13%
CC(=O)N1c2ccc(S(=O)(=O)NCC3CCC(C(=O)NC4CCCCC4C)CC3)cc2CC1C (stereo not drawn)	-2.6	-4.8	0.0	5	12	-0.6	5	2%
C/C(=N\Nc1ccc(S(N)(=O)=O)cc1[N+](=O)[O-])c1ccccc1O	2.3	6.0	-2.4	-2	9	-0.8	-9	-7%
CC(=O)N(c1ccccc1)C1CCCC1	-2.1	1.8	0.5	0	-5	?	-1	-9%
O=C(C1CCCN(S(=O)(=O)c2cccs2)C1)N1CCC(N2CCCCC2)CC1 (stereo not drawn)	-8.9	-0.7	0.1	5	nt	?	-1	1%
O=C(COc1ccc2c(c1)CCC2)N1CCc2ccccc21	nt	1.7	-1.8	-5	0	1.2	14	-6%
COCCNC(=O)CNC(=O)c1nn(-c2ccc(OC)c(Cl)c2)c(=O)c2ccccc12	nt	-1.0	1.9	-2	3	1.3	12	-1%
COc1cccc(C(=O)O/N=C(\N)Cc2ccc(Cl)cc2)c1	nt	0.6	0.3	3	-3	-2.4	-3	-13%
CC1(C)Cc2c(sc(NC(=O)C(=O)N3CCCCC3)c2C(=O)O)CO1	-1.5	0.4	-0.2	-14	-2	5.1	14	13%
CC1CC(C)CN(C(=O)CCCn2c(=O)c3cccn3c3cccnc32)C1 (stereo not drawn)	-2.8	6.8	-1.0	10	-2	?	10	-1%
O=C1c2ccccc2CC1(Cc1ccccc1)Cc1ccccc1	nt	1.3	1.5	6	0	0.8	7	nt
CC(C)(C)N1C(=O)c2ccc(C(=O)O)cc2C1=O	nt	-3.6	0.5	-13	-1	-1.2	4	25%
Cc1cc(C(=O)OCC(=O)Nc2ccc(F)cc2)c(C)o1	nt	-3.3	0.5	-4	-7	4.9	-7	-2%
COc1cc(NC(=O)CSc2nnc3ccc(-c4cccnc4)nn23)cc(OC)c1	-0.3	-6.7	0.1	11	-4	3.5	8	-17%
COc1cccc(CNC(=O)COC(=O)/C(C#N)=C/c2ccc(N(C)C)cc2)c1	-1.2	2.9	1.0	nt	-1	nt	nt	-2%
COc1ccc(Nc2nnc(-c3ccc(O)cc3)c3ccccc23)cc1	3.6	-3.9	2.1	57*	11	7.1	29	?
O=C(CS(=O)(=O)c1ccc(F)cc1)N1CCOCC1	-0.4	0.0	-0.1	-4	-5	-4.3	20	0%
COc1ccc(CC(=O)N2CCN(c3ccc(F)cc3)CC2)cc1	-0.2	0.0	0.1	-13	0	1.2	-5	nt
COc1ccc(CCNC(=O)CCNC(=O)c2ccccc2Cl)cc1	-9.8	-1.8	0.8	-1	-2	3.6	11	nt
CCC1CCCCN1C(=O)COC(=O)c1cc(C)nc2ccccc12 (stereo not drawn)	-2.4	1.6	1.2	nt	1	nt	nt	4%
COc1ccc(OC)c(C2C(C(C)=O)=C(O)C(=O)N2CCC(=O)O)c1 (stereo not drawn)	-5.0	-9.0	-0.2	-13	4	-5.4	15	2%

Remaining list, next part:
SMILES	AF4-AF9 inh	LANA-H2B inh	Bfl-1 A1 inh	T cruzi repl	Beta cell apopt	RanGTP-Imp inh	Calb FLC	Vif TR-FRET
CCOC(=O)[C@H]1[C@H]2COc3ccc(Cl)cc3[C@@H]2N2C(=O)c3cc(OC)ccc3NC(=O)[C@@]12C	0.3	0.5	-0.5	nt	-5	nt	nt	nt
COc1ccc(NCc2ccc(OC)c(Cn3ccnc3)c2)c(OC)c1	34*	0.5	0.1	56*	8	-1.2	2	8%
Cc1ccc2cc(-c3noc(C4CCCCC4)n3)c(=O)[nH]c2c1	0.0	-2.8	1.5	7	nt	-4.0	3	-8%
COc1ccccc1NS(=O)(=O)c1cccc(C(=O)NCc2ccncc2)c1	1.7	0.5	-0.2	-2	3	-4.1	0	10%
CN(C(=O)COC(=O)c1cccnc1Nc1ccccc1F)C1CCS(=O)(=O)C1 (stereo not drawn)	1.5	-0.9	-7.2	0	-4	4.1	20	nt
Clc1ccc(C2=NOC(c3nnc(-c4ccccc4)o3)C2)cc1 (stereo not drawn)	5.6	3.0	-0.5	-11	-4	4.3	0	0%
C[C@@H]1O[C@@H](Oc2c(-c3cc(O)c(O)c(O)c3)oc3cc(O)cc(O)c3c2=O)[C@H](O)[C@H](O)[C@H]1O	-2.3	8.0	0.0	-23	1	-1.2	-9	?
O=C(c1cc(C2CC2)on1)N1CCN(c2ccc(F)cc2)CC1	1.6	2.4	-1.0	-12	-8	-2.4	0	10%
CCOc1ccc(Br)cc1S(=O)(=O)Nc1cccc(S(=O)(=O)N(CC)CC)c1	nt	-1.6	0.7	-5	0	8.7	-4	5%
CC1CCCCN1CCCNc1ccc(C(CC(N)=O)NC(=O)c2ccccc2)cc1[N+](=O)[O-] (stereo not drawn)	-7.2	-4.7	0.0	-9	1	1.7	1	nt
COc1ccc(OC)c(N(CC(=O)NCc2ccccn2)S(C)(=O)=O)c1	nt	-0.9	-0.5	-18	-3	1.7	-7	14%
COc1ccc(C2=Nn3c(nnc3-c3ccncc3)SC2)cc1OC	nt	-4.5	0.1	40	-7	4.8	0	?
COc1ccc2nc(C)cc(SCC(=O)Nc3c(C)cc(C)cc3C)c2c1	nt	-4.2	-0.8	2	-1	0.4	15	-2%
O=C(CCSc1ccccc1)NCC1CCCO1 (stereo not drawn)	nt	2.3	0.3	-11	4	4.6	-5	2%

Screens: PubChem BioAssay, several laboratories
